NS1 inh: qHTS Assay for Inhibitors of Influenza NS1 Protein Function; S. cerevisiae slowed by influenza A NS1, growth recovery by OD600; Potency, µM (doses to about 46.1 µM), inactives show top-dose activity, positive = more growth; 270,000 compounds, 0.4% hits; AID 2326, 2010; active means well fitted rising curve with a large enough effect; inconclusive means small, poorly fitted or top-dose-only effect; inactive means no such curve, though single readings can be large or run the other way; note: nearly all actives have a fitted effect of over 50% in size
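S. cerevisiae expressing influenza A NS1, grown in glucose, washed, then diluted 1:100 into pH 6.0 -URA galactose medium with 23 nl compound. Growth recovery read as OD600; NS1-free strain serves as control.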
SARS PLP yeast: qHTS of Yeast-based Assay for SARS-CoV PLP | 330,000 compounds, 0.19% hits | S. cerevisiae expressing SARS-CoV PLpro, growth rescue; control for the full effect not named in the record | Potency, µM (series often up to 32.9 µM), for the others: top-dose activity, positive = growth rescue; active means well fitted rising curve with a large enough effect; inconclusive means small, poorly fitted or top-dose-only effect; inactive means no such curve, though single readings can be large or run the other way; note: 0% is about no effect; nearly all actives have a fitted effect of over 55% in size; growth read by luminescence after 48 h
Cruzain noTriton: qHTS Assay for Promiscuous and Specific Inhibitors of Cruzain (without detergent); purified cruzain, Z-FR-AMC fluorescence, no detergent; Cruzipain (Trypanosoma cruzi), P25779; Potency, µM, for the others: max response, negative = inhibition, hits mostly inhibitors; 200,000 compounds, 2.3% hits;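 note: plate controls were enzyme without inhibitor for no effect and buffer without enzyme for full effect; nearly all actives have a fitted effect of over 40% in size; top concentration of the series not given in the record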
Target sequence (P25779 123-467 limits assumed): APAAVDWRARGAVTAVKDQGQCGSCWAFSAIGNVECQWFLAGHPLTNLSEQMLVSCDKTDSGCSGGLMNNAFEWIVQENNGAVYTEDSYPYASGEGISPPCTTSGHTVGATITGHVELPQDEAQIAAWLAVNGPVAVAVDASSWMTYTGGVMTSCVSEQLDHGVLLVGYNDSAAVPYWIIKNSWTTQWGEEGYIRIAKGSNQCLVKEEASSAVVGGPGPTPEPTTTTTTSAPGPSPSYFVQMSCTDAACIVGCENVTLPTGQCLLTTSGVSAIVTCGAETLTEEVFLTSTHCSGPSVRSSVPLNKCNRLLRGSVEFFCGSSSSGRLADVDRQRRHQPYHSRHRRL
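Purified cruzain at 1.5 nM, pre-incubated 15 min with compound at room temperature in 100 mM sodium acetate pH 5.5, 5 mM DTT, 0.00005% Triton X-100. Reaction started with 2 uM Z-FR-AMC; AMC fluorescence increase over 60 s gives rate.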
Marburg entry inh: qHTS for inhibitors of binding or entry into cells for Marburg Virus; Potency, µM (highest dose often 37.8 µM), without a hit: top-dose activity change, negative = inhibition, usual class: inhibitors; Marburg virus pseudotyped entry inhibition, cell reporter; control for the full effect not named in the record; about a third of the inactives were read at about 46 µM; 300,000 compounds, 1.8% hits; active = well fitted inhibition curve with a large enough effect; inconclusive = small, poorly fitted or top-dose-only effect, or effect the other way; inactive = flat fitted curve, though single readings scatter; tested in HEK293 cells; about a fifth of its hits are not listed in these tables; note: % is set by controls: 0 for no effect and ±100 for the full control effect; luciferase read-out
Cruzain Triton: qHTS Assay for Promiscuous and Specific Inhibitors of Cruzain (with detergent) | Cruzipain (Trypanosoma cruzi), P25779 | purified cruzain, Z-FR-AMC fluorescence, 0.01% Triton | Potency, µM, for the others: max response, negative = inhibition, usual class: inhibitors | 200,000 compounds, 0.43% hits | AID 1478, 2009;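 note: plate controls were neutral wells for no effect and buffer without enzyme for full effect; nearly all actives have a fitted effect of over 40% in size; top concentration of the series not given in the record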
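Z-FR-AMC hydrolysis (2 uM substrate) by cruzain (1.5 nM) monitored kinetically at ex 360/em 450 nm after 15 min room-temperature compound exposure; 0.01% Triton X-100, pH 5.5, 5 mM DTT.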
StopGo reporter: High Throughput Screening for Foot and Mouth Disease Virus Antivirals; human cells with a luciferase reporter of 2A StopGo recoding; control for the full effect not named in the record; Potency, µM (doses to about 57.9 µM), for the others: at the highest dose signal change, negative = less light; 410,000 compounds, 1.2% hits; AID 1159524, 2015; active = well fitted falling curve with a large enough effect; inconclusive = small, poorly fitted or top-dose-only effect; inactive = no such curve, though single readings can be large or run the other way; tested in HEK293T cells; note: % is set by controls: 0 for no effect and ±100 for the full control effect; nearly all actives have a fitted effect of over 45% in size; luciferase light after 4 h
LASV entry inh: qHTS for Inhibitors of binding or entry into cells for Lassa Virus | Lassa virus pseudotype entry inhibition, cell reporter; control for the full effect not named in the record | Potency, µM (series often up to 37.9 µM), inactives show at the top dose activity change, negative = inhibition, most hits filed as inhibitors | 300,000 compounds, 1.2% hits | AID 540256, 2011; active means well fitted inhibition curve with a large enough effect; inconclusive means small, poorly fitted or top-dose-only effect, or effect the other way; inactive means flat fitted curve, though single readings scatter; tested in HEK293 cells; note: % is set by controls: 0 for no effect and ±100 for the full control effect; nearly all actives have a fitted effect of over 50% in size; luciferase read-out
RE007 growth inh: qHTS Assay for Inhibitors of the HIV-1 protein Vpr; S. pombe RE007 Vpr strain, BacTiter-Glo ATP luminescence, 24 h; control for the full effect not named in the record; Potency, µM (titrated, usually from 92.2 µM), for inactives: top-dose activity change, negative = less growth; 360,000 compounds, 0.21% hits; AID 651644, 2012; active = well fitted falling curve with a large enough effect; inconclusive = small, poorly fitted or top-dose-only effect; inactive = no such curve, though single readings can be large or run the other way;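 note: % is set by controls: 0 for no effect and ±100 for the full control effect; nearly all actives have a fitted effect of over 50% in size; the assay follows cell death caused by Vpr and the record does not say whether a fall means rescue or toxicity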
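Fission yeast strain RE007, carrying one chromosomally integrated HIV-1 vpr copy, was seeded at OD 0.01 in PMG+AL medium with 23 nL pinned compound. After 24 h at 30 °C and 99% humidity, viability was read by BacTiter-Glo luminescence.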
* marks the source's active call; other numbers are inactive results; ? = inconclusive; · = no result given; [ ] = another dose, or the depositor's remark. Unless noted, calls come from the whole dose curve; as a rule, active = well fitted curve in the direction sought with a large enough effect; inconclusive = small, poorly fitted or top-dose-only effect, or another doubt; inactive = no such curve, though single readings can be large; an effect the other way counts as inactive or inconclusive. Potency is the fitted concentration of half-maximal effect. The order is random. About 4.6% of those tested had a hit in this group.

SMILES	NS1 inh	SARS PLP yeast	Cruzain noTriton	Marburg entry inh	Cruzain Triton	StopGo reporter	LASV entry inh	RE007 growth inh
O=C(O)C1CCCCC1C(=O)NCCc1ccccc1 (stereo not drawn)	-1%	4%	5%	0%	4.4%	24%	1%	5%
Cc1cc(NC(=O)C(=O)NCc2cccc(Cl)c2)no1	-7%	-1%	·	1%[46.1 µM]	·	13%	7%	6%
CCc1ccc(NS(=O)(=O)c2cc(Br)cc3c2N(C(C)=O)CC3)cc1	·	·	14%	?	-4.5%	-8%	?	·
O=C(COc1ccccc1)N(Cc1cccnc1)c1nc2c(F)cccc2s1	·	·	-13%	·	-3.0%	13%	-17%[46.1 µM]	·
Cc1ccc(NC(=O)COC(=O)CCn2c(C)csc2=O)cc1S(=O)(=O)N1CCOCC1	·	3%	·	1%	·	-10%	-14%[46.1 µM]	-13%
CCCCn1c(=O)[nH]c(=O)c2c1nc(-c1ccccc1F)n2Cc1ccccc1	·	-1%	·	?	·	-16%	-27%[46.1 µM]	1%
CCc1nn(CC(=O)NCCc2ccc(OC)cc2OC)c(=O)c2cc3sccc3n12	·	·	-13%	-15%[46.1 µM]	-1.6%	34%[activator]	·	·
Cc1cc(SCC(=O)NC2(C#N)CCCCC2)nc2c(C)cccc12	·	1%	·	1%	·	-1%	5%	11%
Cc1nc(N2CCCCC2)c2c(C)c(C(=O)Nc3ccccc3C(F)(F)F)sc2n1	·	-2%	·	?	·	-25%	?	-1%
O=S(=O)(Cc1ccccc1)Nc1ccc(S(=O)(=O)N2CCCC2)cc1	?	0%	·	·	·	-8%	·	1%
Cc1ccc(Cl)cc1N1CCN(C(=O)CN2C(=O)CSc3c2c(C)nn3-c2ccccc2)CC1	·	·	-15%	·	-2.0%	-12%	25%[46.1 µM]	·
COC(=O)C1=C(C(=O)OC)C(c2ccccc2O)c2sc(=O)[nH]c2S1 (stereo not drawn)	-32%	-5%	4%	9%	-3.2%	-14%	-2%	-18%
COc1ccc(CNC(=O)CCc2c(C)nn(-c3ccc(N4CCOCC4)nn3)c2C)cc1	·	·	-11%	·	-1.1%	0%	4%[46.1 µM]	·
O=C(CCc1nnc2ccc(N3CCCC3)nn12)Nc1ccc(F)cc1F	?	6%	·	·	·	-14%	·	-6%
COc1ccc(/C=N/NC(=O)c2ccc3nc[nH]c3c2)cc1	1%	1%	·	0%	·	35%[activator]	-5%	-9%
O=C(/C=C/c1cccs1)Nc1ccc([N+](=O)[O-])cc1	-7%	6%	8%	-11%	-8.0%	-11%	3%	-2%
O=C1NC(=S)S/C1=C\c1cc(Cl)ccc1Cl	·	·	·	?	·	-2%	-22%	?
Cc1nnc2ccc(Oc3ccc(-c4ccccc4)cc3)nn12	-96%	-8%	11%	?	-5.3%	?	-13%	0%
N#Cc1cccc(NC(=O)COc2ccc(-n3ccnc3)cc2)c1	-12%	3%	-15%	-16%	3.6%	28µM*	4%	3%
C/C(=N\Nc1ncc(Cl)cc1Cl)c1ccc(OC(F)F)cc1	-1%	-26%	8%	13%	-4.0%	22%	10%	24%
CC(=O)N1CCN(C(=O)CNc2cc(C(F)(F)F)ccc2OCC(F)(F)F)CC1	-8%	5%	30%	11%[46.1 µM]	2.2%	-6%	1%	15%
COc1cccc(C(=O)Nc2c[nH]c(=O)[nH]c2=O)c1	2%	-2%	·	1%[46.1 µM]	·	27%	5%	5%
CCc1ccc(CNc2ncnc3onc(-c4ccc(Cl)cc4)c23)cc1	·	·	-9%	-12%[46.1 µM]	-3.5%	?	14%[46.1 µM]	·
Cc1cc(Cl)ccc1NC(=O)CCCn1nc(C)c2c(C)n(-c3ccccc3)nc2c1=O	·	·	12%	·	1.4%	-8%	?	·
CN(Cc1ccccc1)C(=O)COc1ccc(Br)cc1Cl	-30%	-12%	·	·	·	5%	·	-11%
COc1cc2c(cc1OC)C13CCN4CC5CCOC6CC(=O)N2C1C6C5CC43 (stereo not drawn)	·	·	·	0%[46.1 µM]	·	-12%	-2%[46.1 µM]	-8%
CC(/C=N/NC(=O)Cn1cnc2ccccc21)=C\c1ccccc1	1%	15%	-1%	-14%	-7.5%	-8%	?	15%
Cn1cnc(CCN)c1	8%	·	-7%	?	2.5%	-17%	-12%	11%[18.4 µM]
O=S(=O)(/N=C(/c1ccc(Cl)cc1)N1CCOCC1)c1ccc(Cl)cc1	3%	-8%	4%	?	3.3%	7%	-11%	7%
COc1ccc(CNc2ccc(C)c(C)c2)cc1	2%	0%	·	17%[46.1 µM]	·	22%	-9%	2%
Cc1cccc(C)c1NC(=O)C(C)N1CCCC1 (stereo not drawn)	-3%	-1%	·	-22%[46.1 µM]	·	4%	17%[46.1 µM]	5%
N#Cc1cc(-c2ccccc2)nn1-c1ccccc1	-84%	12%	0%	?	-2.8%	26%	21%	-20%
COc1ccc(-c2cc(C(=O)OCC(=O)c3ccc(C)c([N+](=O)[O-])c3)c3ccccc3n2)cc1	?	-10%	10µM*	?	-1.3%	6%	-29%	-6%
N#Cc1c(-c2ccccc2)[nH]c(=O)[nH]c1=O	·	-4%	·	13%[46.1 µM]	·	5%	13%	13%
N#Cc1c(-c2ccco2)nc(SCC(=O)Nc2cccc(Cl)c2)[nH]c1=O	4%	2%	1%	-2%	-20%	·	24%	11%
CC(=O)Nc1ccc(NC(=O)c2cc(=O)c3cc(C)c(C)cc3o2)cc1	1%	3%	·	·	·	2%	·	21%
Cc1ccc(-n2nc3c(c2NC(=O)c2ccccc2)CS(=O)(=O)C3)cc1C	4%	-1%	·	-16%	·	-4%	9%	5%
CC1CCN(S(=O)(=O)N2CCC(C(=O)N3CCC(N(C)CC4CCCO4)CC3)CC2)CC1 (stereo not drawn)	1%	-3%	-13%	·	3.8%	-8%	·	17%
O=c1oc(/C=C/c2ccc([N+](=O)[O-])s2)nc2ccccc12	19%	-6%	·	·	·	35%[activator]	·	8%
NC(=O)CC(NC(=O)Cc1ccc(Br)cc1)c1ccc(NCCc2cccc(F)c2)c([N+](=O)[O-])c1 (stereo not drawn)	10%	1%	·	·	·	0%	·	-14%
O=C(O)Cn1ccnc1	-7%	17%	0%	0%	4.5%	-12%	22%	23%
CCOC(=O)/C(=N\Nc1cccc(Cl)c1)Sc1nnc(-c2ccc(OC)cc2)n1C	18%	-48%	17%	-19%	-13%	21%	4%	-1%
Cc1ccc(Cl)c(NC(=O)COC(=O)C2CCC2)c1Cl	·	0%	·	-8%[46.1 µM]	·	7%	-15%	12%
CCOC(=O)C1(Cc2ccccc2C)CCCN(Cc2cc(OC)c(O)c(OC)c2)C1 (stereo not drawn)	8%	-1%	·	0%[46.1 µM]	·	-6%	?	0%
COC(=O)COc1ccc(S(=O)(=O)Nc2cc(OC)ccc2OC)cc1	14%	-2%	8%	-4%	3.5%	·	·	·
COc1ccc(F)cc1S(=O)(=O)N1CCN(c2ccccn2)CC1	5%	-5%	·	?	·	?	5%	-14%
Cc1cc(C)c2cc(C#N)c(SCC(=O)Nc3cc(C)on3)nc2c1	3%	0%	·	20%[46.1 µM]	·	8%	·	-21%
CC(=O)Nc1ccc2nc(NC(=O)C(Cl)(Cl)Cl)sc2c1	0%	-1%	·	0%[46.1 µM]	·	66%[activator]	10%	2%
Cc1oc(-c2ccc(Cl)cc2)nc1CSCC(=O)NCc1ccccc1Cl	·	·	-9%	·	0.3%	0%	-13%[46.1 µM]	·
COc1ccc(C2(C(=O)NCCc3ccccc3)CCCC2)cc1	-94%	11%	·	·	·	6%	·	-4%
CCOC(=O)C1=C(N)OC(C)=C(C#N)C1c1ccco1 (stereo not drawn)	18%	2%	-6%	-18%	-2.8%	-11%	20%	-18%
COc1ccccc1CN1CCN(Cc2cc(OC)c(OC)cc2OC)CC1	-3%	2%	·	·	·	-14%	·	-20%
NC1=NC(=O)CC(C(=O)Nc2cccc3ccccc23)S1 (stereo not drawn)	·	-2%	·	4%[46.1 µM]	·	-3%	10%[46.1 µM]	-10%
COc1cccc2c1-c1c(O)cccc1C2=O	-27%	-2%	·	·	·	-9%	·	-7%
Cc1cc(OC(C)C(N)=O)nc(-c2ccccc2)n1 (stereo not drawn)	·	2%	·	?	·	11%	1%	7%
CCOC(=O)N=Nc1c2ccccc2c2nc3no[nH]c3nc12	·	-33%	·	?	·	2µM*	?	5µM*
COc1ccc(/C=C\c2nc(=O)c3ccccc3o2)cc1	·	-23%	·	?	·	?	?	-22%
C=CCc1cc(Cl)ccc1OCCn1ccnc1	?	-2%	·	?	·	-26%	23%[46.1 µM]	-10%
CCC(=Nc1ccc(OC)cc1OC)c1c(O)n(C2CCCCC2)c(=O)[nH]c1=O	14%	-5%	-3%	?	-5.9%	?	?	11%
O=C(CN1C(=O)C(=O)N(CCC2=CCCCC2)C1=O)Nc1ccc(F)cc1F	·	-1%	·	-20%	·	-11%	-9%	-4%

Further compounds
SMILES	NS1 inh	SARS PLP yeast	Cruzain noTriton	Marburg entry inh	Cruzain Triton	StopGo reporter	LASV entry inh	RE007 growth inh
CN(Cc1ccccc1)C(=O)CSc1nc2ccsc2c(=O)n1-c1ccc(F)cc1	·	·	7%	·	1.5%	-5%	-3%[46.1 µM]	·
CCn1nc(NC(=O)C(C)C)c2cc3ccc(C)cc3nc21	0%	1%	·	-13%[46.1 µM]	·	-9%	3%	6%
CCn1c(SCC(N)=O)nnc1-c1ccc(OC)c(OC)c1	5%	1%	11%	20%	4.9%	11%	-9%	9%
CCOC(=O)c1c(C)[nH]c(C)c1S(=O)(=O)N1CCC(C(=O)N2CCN(c3ccccc3)CC2)CC1	·	·	?	·	1.3%	-12%	-9%[46.1 µM]	·
CCOC(=O)CN1C(=O)C(O)=C(C(C)=O)C1c1ccc(F)cc1 (stereo not drawn)	-3%	12%	0%	12%[46.1 µM]	-5.8%	-17%	8%	3%
CCC(CC)C(=O)Nc1cccc(C(=O)NCCc2ccc(S(N)(=O)=O)cc2)c1	1%	-9%	6%	11%	0.2%	-2%	-22%	-1%
Cc1ccc(-n2ncc(C(=O)NC3CCN(Cc4ccccc4)CC3)c2C2CCN(C(=O)OC(C)(C)C)CC2)cc1C	·	·	12%	·	-2.5%	-5%	?	·

Source: PubChem (National Center for Advancing Translational Sciences (NCATS))
